Bead autofluor = counter-screen for toxin protease inhibitors: compound fluorescence; AID 624483; compound autofluorescence counterscreen, microsphere flow cytometry; stronger effect = higher value; 3.1% of 360,000 active; fluorescence intensity (no concentration beside the values);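 active = at least 3 SD above the mean of all compounds, about 16000 in these data; inconclusive = too few beads counted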;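 also: 100 nL of 1 mM stock went into each well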
RN4220 kill = kills Staphylococcus aureus RN4220. S. aureus RN4220 growth, OD600, 16 h. AID 1259311. 0.33% of 330,000 active. inhibition, % (test concentration not listed);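 active = z-score of -3 or lower and OD600 up to 0.18 on both plates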;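 also: plate controls were untreated cells for no effect and reference antibiotic for full effect; stock transfer was 100 nL into about 80 µL; one replicate is shown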
BJeLR viability = kills HRASV12-expressing BJeLR cells | BJeLR (HRASV12) viability, CellTiter-Glo ATP luminescence, 48 h; reference of the scale not given here | inhibition, % (test concentration not listed) | 0.17% of 300,000 active;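 active = replicate mean above 50%; inconclusive = above 50% but judged a plate artefact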;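 also: 50 nL library stock added to about 25 µL; numbers are from one replicate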
ugtP null kill = kills S. aureus RN4220 lacking UgtP. S. aureus RN4220 ugtP deletion, OD600 growth, 16 h; some inactives read as strong as hits. growth inhibition, % (no concentration beside the values). 0.54% of 330,000 active;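 active = z-score under -3 and OD600 up to 0.15 on both plates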;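 also: plate controls were untreated wells for no effect and antibiotic for full effect; wells of about 80 µL received 100 nL stock; the first replicate is given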
PrP UTR inh = inhibition of PrP 5' UTR reporter expression; 0.35% of 340,000 active; inhibition, % (concentration not given with the values); cell-based PrP 5' UTR mRNA reporter, plate reader; AID 488862;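 active = every replicate at 50% or more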;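 also: 0 = median of the neutral control wells; tested in H4 reporter cells; numbers are from one replicate; inactives centre near -14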
Mtb hypoxia rep = Mtb hypoxia fluorescent reporter inhibition. M. tuberculosis hypoxia-regulated fluorescent reporter, fluorescence. fluorescence inhibition, % (no concentration beside the values). 0.1% of 300,000 active. AID 1159583;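 active = 35 to 45% if threefold the growth effect, above 45% if 1.5-fold the growth effect; inactive = the rest, general growth blockers included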;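 also: wells of about 50 µL received 100 nL stock; 0% = vehicle wells and 100% = reference inhibitor wells; whole bacteria with a GFP reporter of the hypoxia response; strong numbers were not always called active; many hits fall short of the cut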
Mtb hypoxia rep growth = second read-out of Mtb hypoxia rep, no call of its own (marks repeat the call); growth inhibition, %; measured here: M. tuberculosis growth (absorbance);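 0% = vehicle and 100% = reference antibiotic; read after six days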
An asterisk follows results filed as active; ? = inconclusive; . = not tested or not shown.

no. | Structure | Bead autofluor | RN4220 kill | BJeLR viability | ugtP null kill | PrP UTR inh | Mtb hypoxia rep | Mtb hypoxia rep growth
1 | C[C@H](NS(=O)(=O)c1ccc2c(c1)OCCCO2)C(=O)N1CCN(Cc2ccc(C#N)cc2)CC1 | 2914 | 7.8 | . | 11 | -4 | -1 | 5
2 | Cc1cc(NC(=O)CCC(=O)N(c2cccnc2)C(C(=O)NC2CCCC2)c2ccccc2F)no1 (configuration not stated) | . | 0.3 | -7 | 14 | . | . | .
3 | COc1ccc(NC(=O)CN(C)CC(=O)NC(=O)NC2CCCCC2)cc1 | 4082 | 2.0 | . | 4 | -6 | -5 | 1
4 | CN(C(=O)c1cccc(NC(=O)Cc2cccc(NC(=O)C3CCN(S(=O)(=O)c4cccc([N+](=O)[O-])c4)CC3)c2)c1)C1CC1 | 3546 | 4.4 | . | -1 | 0 | -5 | 4
5 | COc1ccc(-c2nn(-c3ccccc3F)cc2CNCCn2nc(C)cc2C)cc1 | 2598 | 1.4 | -2 | -4 | -14 | -26 | -11
6 | S=C(NCCc1cnc[nH]1)NC1CCCC1 | 4524 | 4.6 | 1 | 0 | -24 | 11 | 2
7 | COc1ccccc1N1CCN(S(=O)(=O)CCNC(=O)c2cc(=O)c3ccccc3o2)CC1 | 5161 | -1.7 | 5 | 3 | -10 | -3 | -3
8 | Cc1cccc(OCC(=O)O/N=C(\N)c2ccncc2)c1 | 3740 | 3.3 | 4 | 0 | -28 | 5 | 1
9 | COc1ccc(-c2c(C)c3ccc(OCC(C)=O)cc3oc2=O)cc1 | . | 3.8 | -9 | 3 | -39 | -1 | 11
10 | O=C1COCCOCCOCC(=O)NCCN1 | 4426 | 2.5 | 0 | 0 | -26 | 6 | 3
11 | COC(=O)[C@H](CCSC)NC(=O)Nc1ccc(OC)c(Cl)c1 | 2873 | -15 | -1 | -12 | -10 | 9 | 9
12 | COc1ccc(-c2cc3ccccc3oc2=O)cc1NC(=O)c1ccc([N+](=O)[O-])o1 | 23372* | 37 | 7 | 24 | -56 | -3 | 0
13 | C#CCOCCOCCOCCNc1nc(N2CCN(C(=O)C(CCC(=O)O)n3cc(C(N)CC(C)C)nn3)CC2)nc(N2CCN(C(=O)C(C(C)CC)n3cc(C(N)COC(=O)C(F)(F)F)nn3)CC2)n1 (configuration not stated) | . | 8.1 | . | 3 | . | 11 | 18
14 | CCN(C(=O)COC(=O)c1ccc(Cl)c(S(=O)(=O)N2CCCCC2)c1)C1CCS(=O)(=O)C1 (configuration not stated) | 4113 | 0.8 | . | -2 | 4 | 0 | 3
15 | CN(NC(=O)Nc1ccc(Cl)cc1)c1c(Cl)c(Cl)nn1C | 2595 | 1.5 | -4 | 1 | -14 | 7 | 2
16 | C=CCSc1nc2c(c(=N)n1CC=C)C1CCCC1S2 (configuration not stated) | 6071 | 8.0 | -1 | 4 | -32 | 5 | 12
17 | Cc1cc(C)c(C(N)=O)c(Cl)n1 | 4261 | -2.0 | 1 | 1 | -15 | 0 | 14
18 | O=C(O)CN1C(=O)C2C3C=CC(C2C1=O)C1C(=O)N(CC(=O)O)C(=O)C31 (configuration not stated) | 5753 | -2.3 | -9 | -3 | -9 | -13 | -8
19 | COc1ccc(Cl)cc1C(=O)NNC(=O)c1ccc(F)c(S(=O)(=O)N2CCOCC2)c1 | 3973 | 2.6 | . | 6 | -23 | 12 | 1
20 | O=C(N/N=C/c1c[nH]c2ccccc12)c1ccc2c(c1)OCCO2 | 3541 | . | 14 | . | -80 | . | .
21 | CCCCN1Cc2c(nc3cc(-c4ccccc4)[nH]n3c2=O)C1=O | 5778 | 4.8 | -1 | 7 | -28 | 12 | -1
22 | Cc1ccc(NC(=O)COc2ccccc2)cc1S(=O)(=O)N1CCCCCC1 | 4436 | 2.7 | 17 | 5 | -32 | 2 | 6
23 | COc1cc(C(C)=O)ccc1OCC(O)Cn1nc(C)c(Br)c1C (configuration not stated) | 4267 | 2.6 | 0 | -5 | 1 | -4 | 0
24 | COc1cccc(CNC(=O)CCCN2C(=O)C(c3ccccc3)Oc3cccnc32)c1OC (configuration not stated) | 5535 | 2.0 | 5 | 9 | -15 | 8 | -6

5 entries drawn at random from the list so far, as already listed:
no. | Structure | Bead autofluor | RN4220 kill | BJeLR viability | ugtP null kill | PrP UTR inh | Mtb hypoxia rep | Mtb hypoxia rep growth
24 | COc1cccc(CNC(=O)CCCN2C(=O)C(c3ccccc3)Oc3cccnc32)c1OC (configuration not stated) | 5535 | 2.0 | 5 | 9 | -15 | 8 | -6
23 | COc1cc(C(C)=O)ccc1OCC(O)Cn1nc(C)c(Br)c1C (configuration not stated) | 4267 | 2.6 | 0 | -5 | 1 | -4 | 0
22 | Cc1ccc(NC(=O)COc2ccccc2)cc1S(=O)(=O)N1CCCCCC1 | 4436 | 2.7 | 17 | 5 | -32 | 2 | 6
19 | COc1ccc(Cl)cc1C(=O)NNC(=O)c1ccc(F)c(S(=O)(=O)N2CCOCC2)c1 | 3973 | 2.6 | . | 6 | -23 | 12 | 1
21 | CCCCN1Cc2c(nc3cc(-c4ccccc4)[nH]n3c2=O)C1=O | 5778 | 4.8 | -1 | 7 | -28 | 12 | -1

Other entries follow:
no. | Structure | Bead autofluor | RN4220 kill | BJeLR viability | ugtP null kill | PrP UTR inh | Mtb hypoxia rep | Mtb hypoxia rep growth
25 | O=C(CN1C(=O)NC2(CCCc3ccccc32)C1=O)Nc1cccc(S(=O)(=O)N2CCCCC2)c1 (configuration not stated) | 9273 | . | 5 | . | -10 | . | .
26 | O=C(Nc1ccncc1)C1CCCN(S(=O)(=O)c2cccc3cccnc23)C1 (configuration not stated) | 6074 | 3.0 | 11 | 6 | -20 | . | .
27 | Cc1cc(C)n(-c2nnc(C)n2/N=C/c2ccccc2OCc2ccccc2Cl)n1 | 2844 | . | 7 | . | -13 | . | .
28 | Cc1ccc(OCC(=O)Nc2ccon2)c([N+](=O)[O-])c1 | 4860 | 4.6 | -20 | 14 | -69 | 10 | -3
29 | O=C(OCC(=O)N1CCN(C(=O)c2ccco2)CC1)c1ccccc1OCc1ccccc1 | ? | 1.7 | -6 | 6 | 2 | -2 | -6
30 | COc1ccc(CCNS(=O)(=O)c2cn(C)cn2)cc1OC | 4646 | -1.1 | -15 | -2 | -11 | -5 | -8
31 | O=C1c2c(Cl)c(Cl)c(Cl)c(Cl)c2C(=O)N1c1nccs1 | 3726 | 4.9 | . | 2 | -5 | 5 | 6
32 | Cc1ccc(COC(=O)NCc2cccnc2)cc1 | 4230 | 0.9 | -4 | 9 | -29 | 20 | 8

Compound profiles, as listed above. Order of screens: Bead autofluor	RN4220 kill	BJeLR viability	ugtP null kill	PrP UTR inh	Mtb hypoxia rep	Mtb hypoxia rep growth
Listed for `Cc1ccc(OCC(=O)Nc2ccon2)c([N+](=O)[O-])c1` = 4860	4.6	-20	14	-69	10	-3
Listed for `Cc1ccc(COC(=O)NCc2cccnc2)cc1` = 4230	0.9	-4	9	-29	20	8

Later entries.
no. | Structure | Bead autofluor | RN4220 kill | BJeLR viability | ugtP null kill | PrP UTR inh | Mtb hypoxia rep | Mtb hypoxia rep growth
33 | CCOc1ccc2c(c1)OC(c1ccc(C)cc1)(C(F)(F)F)NC2=O (configuration not stated) | 10605 | -2.1 | 34 | -19 | 16 | 5 | 2
34 | COc1cc2nc(CC(C)C)n(NC(=O)c3ccccc3)c(=O)c2cc1OC | 22766* | -0.4 | 6 | -2 | -13 | -1 | 2
35 | Cc1ccc(NC(=O)CSc2ccccc2NC(=O)c2cccc(Cl)c2)cc1Cl | 2648 | 5.1 | -8 | 4 | -41 | 5 | -1
36 | O=C1CC(C2CCCO2)C(=O)N1Cc1ccccc1 (configuration not stated) | 3588 | 2.8 | -3 | 9 | -1 | . | .
37 | COc1ccc(OCC(=O)NCCNC(=O)c2cccnc2)cc1 | 3834 | -2.7 | 3 | -3 | -16 | 5 | 1
38 | COc1ccc(N2CC(C(=O)NN=Cc3cc([N+](=O)[O-])ccc3O)CC2=O)cc1 (configuration not stated) | . | 90* | . | 77 | . | 9 | -4
39 | COc1cccc(C(c2sc3nc(C)nn3c2O)N2CCN(C(=O)c3ccco3)CC2)c1 (configuration not stated) | 6720 | 17 | 6 | 3 | -25 | -5 | 12
40 | NC(=O)[C@H](Cc1cc2ccccc2s1)NC(=O)[C@@H]1CC2(CC(c3cccc(NC(=O)[C@@H]4CCC(=O)N4)c3)=NO2)CN1C(=O)c1ccccc1 (some centres not stated) | 3648 | 10 | 5 | -1 | -35 | -10 | 13
41 | O=C(O)CCCCN1C(=O)/C(=C\c2ccc(OCc3ccccc3)c(OCc3ccccc3)c2)SC1=S | 3990 | 29 | -2 | 24 | 2 | 11 | 18
42 | CC(OC(=O)c1ccc2ncsc2c1)C(=O)NCc1ccccc1 (configuration not stated) | . | 2.8 | 1 | 6 | . | 7 | 5
43 | COc1ccc(OCc2cc(C(=O)NCc3cccc(C)n3)no2)c(Cl)c1 | 5947 | 3.0 | 0 | 3 | -10 | -1 | -2
44 | CCCc1cc(NCCCCO)n2c(nc3ccccc32)c1C#N | 9513 | 1.5 | 7 | -6 | -27 | 19 | 4
45 | COc1ccc(C(=O)Nc2ccccc2NC(=O)c2ccco2)c(OC)c1 | 2039 | 6.7 | -15 | 4 | -19 | -3 | -7
46 | CCC(c1nnnn1CCC(C)C)N1CCC(C(N)=O)CC1 (configuration not stated) | 2612 | -1.9 | -1 | 5 | -6 | . | .
47 | Cc1cc(C)c(S(=O)(=O)NCC2CCC(C(=O)NCCCN3CCC(C)CC3)CC2)c(C)c1 (configuration not stated) | 5753 | 4.7 | 3 | 5 | -23 | 7 | 1
48 | O=C(OCn1nnc2ccccc2c1=O)c1ccc(S(=O)(=O)N2CCOCC2)cc1 | 4139 | 1.4 | -8 | 0 | -5 | . | .
49 | COc1cc(C2CC(=O)Oc3cc(C)c(Br)c(C)c32)cc(OC)c1OC (configuration not stated) | 3417 | 1.0 | . | -3 | -5 | -4 | 2
50 | Cc1cc(C)cc(NC(=O)CN2C(=O)NC(Cc3c[nH]c4ccccc34)C2=O)c1 (configuration not stated) | . | 2.6 | . | -2 | -11 | 6 | -4
51 | CC1CN(C(=O)Cn2cc(SCC(=O)N3CCOCC3)c3ccccc32)CC(C)O1 (configuration not stated) | 6125 | 1.7 | -8 | 5 | -6 | -1 | 7
52 | CC(OC(=O)c1cccc(-n2cnnn2)c1)C(=O)Nc1ccc(F)cc1 (configuration not stated) | 6439 | 1.6 | 12 | 0 | -5 | 3 | 4
53 | O=C(NCc1ccccc1Cl)C1CCCN1C(=O)NCc1ccccc1 (configuration not stated) | 3580 | 3.2 | -6 | 5 | 0 | -2 | -4
54 | Cc1ccc(S(=O)(=O)CCC(=O)Oc2ccc(-c3nnco3)cc2)cc1 | 6000 | 2.1 | -6 | 5 | -9 | -5 | 3
55 | CCOC(=O)c1c(S(=O)(=O)NCCCc2ccco2)c(C)n(C)c1C | 6505 | 1.7 | -5 | 1 | -26 | 1 | 6
56 | CCOC(=O)COc1c(OC)cc(Cl)cc1C1NC(=O)NC(C)=C1C(C)=O (configuration not stated) | 10050 | 6.1 | 2 | -3 | . | 4 | 7
57 | CC(/C=N/NC(=O)c1sc(N)nc1C)=C\c1ccccc1 | 2273 | . | -2 | . | -72 | . | .
58 | Cn1c(=O)c2c(nc(NC3CCCCC3)n2Cc2ccccc2)n(C)c1=O | 4451 | 2.6 | 1 | 3 | -17 | -3 | 12
59 | Cc1nc(C(N)=O)c(N)n1CCc1ccccc1 | 3133 | -0.5 | -1 | 1 | -2 | -4 | -9
60 | Cc1ccc2ccccc2c1Cn1c(-n2ccnc2)nc2c1c(=O)n(C)c(=O)n2C | 4575 | 4.2 | -3 | -1 | 1 | . | .
61 | COC(=O)c1ccc(CSc2nc3ccc(Cl)cc3[nH]2)o1 | 3670 | -7.0 | 3 | 0 | -10 | . | .
62 | O=C(CSc1n[nH]c(=O)n1C1CC1)Nc1ccc(Cl)c(Cl)c1 | 3814 | 1.8 | -4 | -8 | -7 | -9 | -4
63 | Cc1ccc2ncnc(-c3ccccc3)c2c1 | 3332 | 1.3 | -6 | 0 | -67 | 9 | -2
64 | CC(C)(C)CN1CCNC(=O)C1CC(=O)NC1Cc2ccccc2C1 (configuration not stated) | 2791 | 4.7 | 3 | 9 | -41 | 9 | 2

Outcome played no part in choosing rows; overall some 4% were active at least once.
